D2 PAM: Beta-Arrestin HTS for Positive Allosteric Modulators of the Human D2 Dopamine Receptor: Potentiators | D(2) dopamine receptor (Homo sapiens), P14416 | DiscoveRx D2 beta-arrestin cells, luminescence, 90 min; 100% = 57 uM dopamine signal | potentiation, % (test concentration not listed) | actives 0.23% (n = 360,000) | AID 624464, 2012; active = potentiation of 50% or more; inconclusive = 30% to 50%; inactive = 30% or less;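 further: compound concentration not given in the record; tested on top of an EC20 dose of dopamine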
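D2 cells co-treated with compound plus 50 nM dopamine (EC20) for 90 min at 37 deg C to detect potentiation. Beta-arrestin recruitment was read as enzyme-fragment luminescence after 1 h at ambient temperature. Full response was set by 57 uM dopamine.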
TRPV1 PAM: HTS Assay for Compounds that Act as Potentiators of the Vanilloid Receptor 1; Transient receptor potential cation channel subfamily V member 1 (Homo sapiens), Q8NER1; TRPV1-expressing cells, Fluo-8 calcium influx, capsaicin EC20 potentiation; host cell line not named in the record; control for the full effect not named in the record; potentiation, % at 8.33 µM; actives 0.02% (n = 320,000); AID 540277, 2011; active means potentiation above 80%; inconclusive means 30% to 80%; inactive means below 30%; further: 0% is about no effect
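Fluo-8 calcium influx in TRPV1-expressing cells, kinetic read (ex 480/em 520 nm). Compound added and read 3 min for agonist activity, followed by capsaicin at EC20 final and 2 min further read for enhancement.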
CtBP-E1A blk: qHTS Assay for Inhibitors of the CtBP/E1A Interaction. AlphaScreen GST-E1A/His-CtBP binding, 1536-well; stronger effect = lower value; control for the full effect not named in the record. activity change, % (no concentration beside the values). actives 0.49% (n = 340,000). AID 651724, 2012; in the data active means activity change below about -65%; inconclusive means about -30% to -65%; inactive means above about -30%; further: on the % scale 0 is the no-effect control and ±100 the full control effect; compound concentration not given in the record
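GST-E1A and His-tagged CtBP (125 nM each as 5X stock) were preincubated with pin-transferred compound for 2 h at 37 °C in the dark, then glutathione donor and nickel acceptor beads were added for 1 h before AlphaScreen reading.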
Six1-Eya2 inh: qHTS Assay for Inhibitors of the Six1/Eya2 Interaction; actives 0.56% (n = 360,000); AID 651725, 2012; AlphaScreen GST-Six1/His-Eya2 binding, biochemical; stronger effect = lower value; control for the full effect not named in the record; activity change, % (test concentration not listed); Homeobox protein SIX1 (Homo sapiens) + Protein phosphatase EYA2 (Homo sapiens), …; in the data active = activity change below about -65%; inconclusive = about -30% to -65%; inactive = above about -30%; further: on the % scale 0 is the no-effect control and ±100 the full control effect; compound concentration not given in the record
Target sequence (O00167 whole entry, looked up): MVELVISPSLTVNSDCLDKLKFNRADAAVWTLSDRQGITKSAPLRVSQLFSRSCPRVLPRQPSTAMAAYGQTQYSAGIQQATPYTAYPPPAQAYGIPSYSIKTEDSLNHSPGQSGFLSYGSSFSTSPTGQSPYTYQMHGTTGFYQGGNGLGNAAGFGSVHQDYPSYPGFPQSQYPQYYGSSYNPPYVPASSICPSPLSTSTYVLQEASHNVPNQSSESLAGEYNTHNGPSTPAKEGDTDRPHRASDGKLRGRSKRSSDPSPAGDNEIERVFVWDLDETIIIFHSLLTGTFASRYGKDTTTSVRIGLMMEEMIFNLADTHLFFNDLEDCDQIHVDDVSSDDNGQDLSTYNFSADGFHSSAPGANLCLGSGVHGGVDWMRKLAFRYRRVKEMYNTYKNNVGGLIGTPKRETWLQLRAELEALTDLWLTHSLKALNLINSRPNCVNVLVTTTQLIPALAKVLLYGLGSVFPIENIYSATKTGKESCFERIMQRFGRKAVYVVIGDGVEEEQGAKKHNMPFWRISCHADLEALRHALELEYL
Target sequence (Q15475 whole entry, looked up): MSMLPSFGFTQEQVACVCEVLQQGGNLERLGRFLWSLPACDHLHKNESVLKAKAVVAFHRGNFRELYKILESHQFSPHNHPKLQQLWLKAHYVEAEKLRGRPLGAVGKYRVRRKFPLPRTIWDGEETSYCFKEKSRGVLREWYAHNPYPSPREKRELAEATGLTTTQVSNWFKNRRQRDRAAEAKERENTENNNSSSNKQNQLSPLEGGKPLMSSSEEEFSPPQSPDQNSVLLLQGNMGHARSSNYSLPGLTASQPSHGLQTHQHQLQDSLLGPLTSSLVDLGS
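Compounds are tested against tagged Six1 and Eya2 proteins bridged by glutathione donor and nickel acceptor beads; after a one-hour incubation at 37 °C without light, AlphaScreen emission is recorded.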
Sfp inh: qHTS Assay for Inhibitors of Bacillus subtilis Sfp phosphopantetheinyl transferase (PPTase); Biochemical Sfp PPTase activity, qHTS; 4'-phosphopantetheinyl transferase ffp (Bacillus subtilis), Q9F4F7; Potency, µM, for the others: max response, negative = inhibition, most hits filed as inhibitors; actives 3.5% (n = 310,000); active means well fitted inhibition curve with a large enough effect; inconclusive means small, poorly fitted or top-dose-only effect, or another doubt; inactive means no such curve, though single readings can be large or run the other way;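 further: the enzyme is Sfp with the accession as filed and its product quenches rhodamine fluorescence; potency means the concentration at half of the fitted maximal effect; 0% = enzyme reaction without inhibitor and -100% = no enzyme wells; top concentration of the series not given in the record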
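Sfp 15 nM + cpd, 15 min RT; start w/ rhodamine-CoA 5 uM, BHQ-2-YbbR 12.5 uM (final); 50 mM Hepes pH 7.6, 10 mM MgCl2, 0.01% NP-40, 0.01% BSA; read 525/598 nm at 0 and 30 min.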
D2 ag: Beta-Arrestin HTS for Positive Allosteric Modulators of the Human D2 Dopamine Receptor: Agonists | D(2) dopamine receptor (Homo sapiens), P14416 | DiscoveRx PathHunter D2 beta-arrestin, luminescence, 90 min; 100% = 57 uM dopamine signal | activation, % (concentration not given with the values) | actives 0.084% (n = 360,000) | AID 624465, 2012; in the data active = activation above about 40%; inconclusive = about 15% to 40%; inactive = below about 15%; further: compound concentration not given in the record; the text of the record calls up to 30% inactive
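Agonist mode: compounds alone added to overnight-plated D2 PathHunter cells for 90 min at 37 C, with 57 uM final dopamine (EC100) defining full response. Beta-arrestin recruitment detected by chemiluminescent reagent, read after 1 h at ambient temperature.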
PINK1 modulator: A Quantitative High throughput Screen to Identify Chemical Modulators of PINK1 Expression; Potency, µM (top dose mostly 76.6 µM), inactives show at the top dose activation (PINK1 increase), usual class: activators; PINK1 immunofluorescence, high-content cytometry, 24 h; actives 0.2% (n = 410,000); AID 624263, 2012; active = well fitted activation curve with a large enough effect; inconclusive = small, poorly fitted or top-dose-only effect; inactive = flat fitted curve, though single readings scatter; cell line not stated here;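 further: potency means the concentration at half of the fitted maximal effect; % of control where 0% means no effect; nearly all actives have a fitted effect of over 65% in size; a mitochondrial uncoupler was the plate control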
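Stable cell line, 250 cells/well, 12 h attachment; compounds pinned at 5 concentrations, 24 h; CCCP control. Fixed with nuclear dye, primary antibodies 12 h at 10 degrees C, secondary plus cell stain; laser-scanning cytometer read.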
The depositor's hits bear a star; ? = inconclusive; . = no result given; & = joins results of further samples; [ ] = dose if it differs, or a comment.

SMILES	D2 PAM	TRPV1 PAM	CtBP-E1A blk	Six1-Eya2 inh	Sfp inh	D2 ag	PINK1 modulator
O=C(c1ccccc1)c1ccc(NCCCn2ccnc2)c([N+](=O)[O-])c1	-7	11	-26	0	6%	5.0	-0.1%
CCOC(=O)C1(Cc2ccc(OC)cc2)CCN(C(=O)CCn2cccn2)CC1	0	-9	-2	6	5%	-1.0	-1.3%
COc1ccc(S(=O)(=O)N2CCOCC2)cc1NC(=O)COC(=O)c1oc2ccccc2c1C	-3	28	.	0	.	-4.2	5.4%
CC1CCCC(N2CCN(C(=O)c3ccc([N+](=O)[O-])cc3)CC2)C1 (centres undefined)	-2	-16	-22	-1	-14%	-2.9	1.5%
CCCNC(=O)c1cc2c(c(-c3cccc(-c4ccccc4F)c3)n1)[C@H](CCO)N(C(=O)CC1CC1)C2	.	.	-1	-9	.	.	-0.9%
COc1cc2c(cc1OC)C(C)N(C(=O)c1cc3ccccc3o1)CC2 (centres undefined)	-11	-5	1	-5	-6%	2.4	-0.7%[38.3 µM]
CC(=O)N/C(N)=N/c1nc2cc([N+](=O)[O-])ccc2o1	-5	.	-3	-4	12%	-3.3	-2.0%
CC1(C)CC(=O)C2=C(C1)N(c1ccc(F)cc1)C(=O)CC2c1cccnc1 (centres undefined)	-7	3	4	7	26%	-3.4	0.2%
Cc1ccc2nc(NC(=O)CCn3c(=O)sc4ccccc43)sc2c1	-4	-9	-1	-3	3%	-2.8	4.6%
Cc1[nH]c2ccccc2c1SCc1nnc(SCc2ccc(Cl)cc2)n1C	-2	2	-14	-17	-11%	0.9	24%
O=C(Nc1ccc2c(c1)OCO2)c1ccc([N+](=O)[O-])cc1[N+](=O)[O-]	?	17	-9	-7	0%	6.3	-0.5%
O=C(NCC1CCCO1)c1ccc(Br)s1 (centres undefined)	0	-8	1	4	23%	-0.5	0.5%
COc1ccc(NC(=O)N(C)C[C@@H]2Oc3c(NC(=O)Nc4c(C)noc4C)cccc3C(=O)N([C@@H](C)CO)C[C@@H]2C)cc1	-3	.	1	-1	.	-1.7	-0.9%
CCOC(=O)NS(=O)(=O)c1ccc(CCNC(=O)c2cc(C)on2)cc1	-6	3	33	28	3%	-2.2	-0.6%
CCOC(=O)N1CCC(NC(=O)c2cc(S(=O)(=O)N3CCCCC3)ccc2F)CC1	-7	-2	3	1	15%	3.2	0.1%
COc1ccc(/C=C/C(=O)NCC(=O)N2CCC(N(C)CCN3CCOCC3)CC2)cc1OC	-3	-10	11	7	-7%	-4.2	0.3%
Cn1cc(C(=O)C(=O)N2CCCC2)c2ccccc21	-8	5	-2	2	20%	-1.7	1.4%
CCc1ccc(NC(=O)CCNC(=O)Cn2cnc3ccccc3c2=O)cc1	-13	2	-15	2	16%	-6.2	3.1%&1.3%
CN(C)/C=N/c1ncc(C(=O)c2ccccc2)s1	-2	-15	4	3	18%	-2.3	-1.0%
Cc1sc2nc(CN(C(=O)c3cccs3)C3CCCC3)[nH]c(=O)c2c1C	-5	13	-9	-6	-12%	-4.4	-0.3%
Cc1nnc(SCC(=O)NCC(=O)Nc2ccc(F)c(F)c2F)n1N	-3	.	2	8	.	2.3	1.0%
Cc1ccccc1C(=O)NNC(=S)Nc1cccc(C(F)(F)F)c1	-16	9	5	-7	-18%	-8.9	?
O=C1C=C(c2cccc3c2oc2ccccc23)CCC1	-9	.	4	0	.	-2.9	-0.4%
NC(=S)NN=C1CCSCC1	-2	.	-23	-13	.	1.1	-1.8%
COc1ccc(NC(c2ccccc2)c2ccncc2)cc1 (centres undefined)	-1	-49	5	3	?	5.2	-0.5%
CN(C)c1cccc(C(=O)OCC(=O)Nc2ccccc2Cl)c1	3	-10	-5	0	-11%	-4.1	2.1%
O=C(CN1C(=O)c2cccnc2Oc2ccc(Cl)cc21)NC1CCCCC1	0	-4	0	9	5%	-1.1	1.8%
O=C(Nc1ccccc1C(F)(F)F)c1cc2ccccc2o1	-5	-1	.	9	13%	-3.2	1.2%
Cc1ccc(S(=O)(=O)NN=C2CC3CCC2(C)C3(C)C)cc1 (centres undefined)	-1	.	2	5	.	-0.9	-0.6%
CCc1ccc(NCCC(=O)c2ccc(Br)cc2)cc1	2	2	3	-2	-4%	-1.4	2.9%[38.3 µM]
Cc1ccc2c(C(=O)CN3CCCC(C)C3)c(C)[nH]c2c1 (centres undefined)	-1	-10	5	-2	3%	-5.9	0.7%
CSc1nc2cc(C)nn2c(-c2ccccc2Cl)c1C#N	0	-2	5	2	15%	-1.8	-3.6%
O=C(O)C1CC(=O)N(c2ccc(OCc3ccc(Br)cc3)cc2)C1 (centres undefined)	-4	7	-1	2	9%	-0.7	-1.3%
O=C(O)COc1ccccc1/C=N/NC(=O)CNC(=O)c1ccc(F)cc1	-3	?	3	3	3%	-1.5	1.5%
CCn1c(/C=C\c2ccccc2C)nc2ccccc2c1=O	-7	-2	.	2	4%	-3.1	5.2%

14 entries already listed, ordered by molar mass, lowest first:
SMILES	D2 PAM	TRPV1 PAM	CtBP-E1A blk	Six1-Eya2 inh	Sfp inh	D2 ag	PINK1 modulator
NC(=S)NN=C1CCSCC1	-2	.	-23	-13	.	1.1	-1.8%
CN(C)/C=N/c1ncc(C(=O)c2ccccc2)s1	-2	-15	4	3	18%	-2.3	-1.0%
Cc1ccc2c(C(=O)CN3CCCC(C)C3)c(C)[nH]c2c1 (centres undefined)	-1	-10	5	-2	3%	-5.9	0.7%
COc1ccc(NC(c2ccccc2)c2ccncc2)cc1 (centres undefined)	-1	-49	5	3	?	5.2	-0.5%
O=C(Nc1ccccc1C(F)(F)F)c1cc2ccccc2o1	-5	-1	.	9	13%	-3.2	1.2%
CSc1nc2cc(C)nn2c(-c2ccccc2Cl)c1C#N	0	-2	5	2	15%	-1.8	-3.6%
Cc1ccc(S(=O)(=O)NN=C2CC3CCC2(C)C3(C)C)cc1 (centres undefined)	-1	.	2	5	.	-0.9	-0.6%
CCc1ccc(NCCC(=O)c2ccc(Br)cc2)cc1	2	2	3	-2	-4%	-1.4	2.9%[38.3 µM]
CN(C)c1cccc(C(=O)OCC(=O)Nc2ccccc2Cl)c1	3	-10	-5	0	-11%	-4.1	2.1%
O=C(O)COc1ccccc1/C=N/NC(=O)CNC(=O)c1ccc(F)cc1	-3	?	3	3	3%	-1.5	1.5%
Cc1nnc(SCC(=O)NCC(=O)Nc2ccc(F)c(F)c2F)n1N	-3	.	2	8	.	2.3	1.0%
O=C(CN1C(=O)c2cccnc2Oc2ccc(Cl)cc21)NC1CCCCC1	0	-4	0	9	5%	-1.1	1.8%
Cc1sc2nc(CN(C(=O)c3cccs3)C3CCCC3)[nH]c(=O)c2c1C	-5	13	-9	-6	-12%	-4.4	-0.3%
O=C(O)C1CC(=O)N(c2ccc(OCc3ccc(Br)cc3)cc2)C1 (centres undefined)	-4	7	-1	2	9%	-0.7	-1.3%

An excerpt from above in order of formula weight, largest number first.
SMILES	D2 PAM	TRPV1 PAM	CtBP-E1A blk	Six1-Eya2 inh	Sfp inh	D2 ag	PINK1 modulator
CSc1nc2cc(C)nn2c(-c2ccccc2Cl)c1C#N	0	-2	5	2	15%	-1.8	-3.6%
CCn1c(/C=C\c2ccccc2C)nc2ccccc2c1=O	-7	-2	.	2	4%	-3.1	5.2%
Cc1ccc2c(C(=O)CN3CCCC(C)C3)c(C)[nH]c2c1 (centres undefined)	-1	-10	5	-2	3%	-5.9	0.7%
